Ba CapD inh: CapD enzyme inhibition. purified CapD enzyme, fluorescence intensity read-out; stronger effect = lower value; some hits fall short of the stated cut. z-score (test concentration not listed). hit rate 0.23% among 140,000. AID 492967;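 active = z-score under -4 in either of two replicates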;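 note: stock transfer was 100 nL into about 40 µL; score is relative to mean and spread of the plate; one replicate is shown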
AID504770: E. coli YBA685 growth inhibition, screen for V. cholerae RctB inhibitors | E. coli YBA685 rctB-dependent plasmid, OD600 growth, 3 h; stronger effect = lower value | z-score (test concentration not listed) | hit rate 0.27% among 130,000 | AID 504770;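 active = z-score under -2 on both plates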;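 note: wells of about 30 µL received 100 nL stock; score is relative to mean and SD of the test wells; the first replicate is given; strong numbers were not always called active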
An asterisk follows results filed as active; i = inactive; / = not tested or not shown.

Every second line gives: Ba CapD inh, AID504770
> Cc1cc(=O)oc2cc(OCCOc3ccccc3)ccc12
    0.86, 2.2
> Clc1cccc(-c2nc(N3CCCC3)nc3c2COc2ccccc2-3)c1
    0.54, 0.15
> CS(=O)c1cnc(-c2cccnc2)nc1-c1ccc(C(F)(F)F)cc1 (configuration not stated)
    0.1, /
> OC1C2CCC1C(N1CCCC1)CC2 (configuration not stated)
    -1.2, 0.35
> O=S(=O)(/N=C(\Nc1ccc(O)cc1)c1ccccc1)c1ccccc1
    0.3, 1.1
> Cc1ccc(/C=C2/SC(=Nc3ccc(O)cc3)NC2=O)o1
    -1.4, -0.8
> O=C1CCCCC1Sc1nc2ccccc2s1 (configuration not stated)
    -0.49, -1.3
> Cc1nc(N2CCN(C(=O)c3ccco3)CC2)nc2c1C(=O)CC(c1ccccc1)C2 (configuration not stated)
    0.88, 0.45
> COc1cccc(C(=O)N/N=C(\C)c2ccccc2O)c1
    -1.1, /
> CCCCn1c(N)c(C(=S)NC(=O)C2CC2)c(=O)[nH]c1=O
    /, -0.25
> N#Cc1ccc(OCC(=O)N2CCCC2)cc1
    0.49, -0.2
> C[N+]1(CCC(=O)NCc2ccccc2)CCCCC1
    0.02, 1.4
> CCOC(=O)C1(c2cccn2C)Sc2ccccc2NC1=O (configuration not stated)
    /, -0.05
> CCOC(=O)Nc1ccc(OC)cc1
    -0.68, -0.2
> O=C(N[C@@H](Cc1ccccc1)c1nc2ccccc2[nH]1)C1CC(=O)N(c2ccc3c(c2)OCCO3)C1 (some centres not stated)
    /, 0
> CC(C)(Oc1ccc(Cl)cc1)C(=O)OCC(=O)N1CCN(c2ccccc2)CC1
    /, -0.2
> CN1Cc2cc(C(=O)c3ccccc3O)cnc2NC1=O
    /, -1.5
> COc1ccccc1Nc1nc(-c2ccccc2O)nc2ccccc12
    0.085, /
> CC1CC(=O)Nc2ccccc2N1C(=O)c1ccc(Cl)cc1Cl (configuration not stated)
    -0.53, /
> Cc1cc(C)c(C#N)c(Sc2ccc(Cl)cc2)n1
    0.02, -1.2
> Cc1nn(-c2ccccc2)c(C)c1/C=N/NC(=O)c1ccc(Cn2cnc(Cl)c2Cl)o1
    0.73, /
> CCc1ccccc1-n1c(SCc2cc(=O)n3cc(Br)ccc3n2)nc2[nH]ncc2c1=O
    0.42, /
> O=C(Nc1cc2c(oc1=O)CCCC2=O)c1cccc(C(F)(F)F)c1
    -0.76, /
> CN(C)c1ccc(/C=C(\C#N)C(=O)OC(C)(C)C)cc1
    -3.6, 0.05
> COc1cccc(C(=O)CS(=O)(=O)c2ccc(C)cc2)c1
    0.085, 2.3
> COC(=O)c1c(C)oc2cc(Br)c(OCc3c(F)cccc3Cl)cc12
    0.16, /
> CCOc1ccc(OCC)c(NS(=O)(=O)c2ccc3[nH]c(=O)c(=O)[nH]c3c2)c1
    -0.71, 0.25
> CCn1c(CC(=O)OC)csc1=Nc1ccc(Cl)cc1
    /, 1.5
> CCN(C(=O)CSc1nnc(Cc2ccccc2)o1)C1=CCCCC1
    /, 0.35
> COc1ccc(-c2c(C(F)(F)F)oc3c(CN4CCCC(C)C4)c(O)ccc3c2=O)cc1OC (configuration not stated)
    -0.35, 2
> CCNc1cc(N(C)C)nc(Oc2ccc(OCCOc3ccccc3C)nn2)n1
    0.84, 0.35
> O=C(CSc1ccccc1)N1CCN(c2ccccc2)CC1
    0.76, 0.2
> Cc1csc(N(C(=O)c2ccc(S(=O)(=O)N3CCOCC3)cc2)c2ccccc2)n1
    /, -0.45
> CCCCc1nc2ccccc2c(=O)n1NC(=O)c1c(O)c2ccccc2n(CCC)c1=O
    1.4, /
> O=C(COc1ncn(-c2ccccc2)n1)N/N=C/c1ccccc1OCc1ccccc1
    -0.74, /
> CCOC(=O)c1ccc(N2CCOCC2)c([N+](=O)[O-])c1
    -0.17, /
> CSc1nnc(Nc2ccccc2)n1-c1ccccc1
    0.01, -0.5
> CS(=O)(=NS(=O)(=O)c1cccc2nsnc12)c1ccc(Cl)cc1 (configuration not stated)
    3.4, -0.35
> COc1cccc2c1C(=O)c1c(O)c3c(c(O)c1C2=O)C[C@@](O)(C(C)=O)C[C@@H]3OC1CC(N)C(O)C(C)O1 (some centres not stated)
    2.1, /
> CCN(CC)/C(=C\C#N)c1ccc(F)cc1
    /, 0.45
> O=C(Nc1ccccc1)c1ccc(=O)n(Cc2ccc(Cl)c(Cl)c2)c1
    -0.27, /
> CCN(CC)CCC(=O)N1N=C(c2ccc(C)cc2)CC1c1ccc(OC)cc1 (configuration not stated)
    0.45, 0.25
> COCCCn1cc(-c2c(-c3cc(=O)oc4cc(OC)ccc34)oc3cc(OC)ccc23)cc(C#N)c1=O
    /, -0.5
> CCc1ccccc1NC(=O)c1cc(C)on1
    0.075, -0.1
> Cc1c(C(=O)N(C)C)sc2[nH]c(=O)n(-c3ccc(F)cc3)c(=O)c12
    0.6, 0.55
> COc1ccc(NC(=O)c2sc3nc(C)nc(N4CCC(C)CC4)c3c2C)c(OC)c1
    0.37, /
> CSc1ccc(S(=O)(=O)Nc2ccccc2C(=O)N2CCOCC2)cc1
    -0.66, 1.8
> CN(C=O)CP(=O)(O)CN1CCCCC1
    80, 0.45
> Cc1ccc(-n2c(SCC(=O)c3ccccc3)nc3[nH]ncc3c2=O)cc1Cl
    -0.62, 0.2
> CNC(=O)c1cc(S(=O)(=O)N2CCc3ccccc32)ccc1C
    /, -1
> COC(=O)c1oc2c(c1C)-c1nc3ccccc3nc1C(C)(C)C2
    0.26, 2
> CC(C)(C)c1ccc(NC(=O)N2CCOCC2)cc1
    0.34, 1.9
> O=C(O)CC(CC(=O)Nc1ccc(-n2ccc(C(F)(F)F)n2)cc1)c1ccccc1 (configuration not stated)
    -0.59, -0.2
> Oc1c(CN2CCOCC2)cc(-c2ccccc2)cc1CN1CCOCC1
    i, 0.25
> CC1(C)CC(=O)C2=C(C1)OC(N)=C(C#N)C2c1ccc(C2C(C#N)=C(N)OC3=C2C(=O)CC(C)(C)C3)cc1 (configuration not stated)
    -0.13, /
> Cc1cc(=O)[nH]c(SCC(=O)N(C)c2ccccc2)n1
    /, -0.55
> Cc1nc(CC(=O)N/N=C/c2ccc(CSC(F)F)o2)cs1
    /, -1.6
> CN1c2ccccc2C(O)=C(C(=O)Nc2ccc(Cl)cc2)S1(=O)=O
    -0.23, /
> Cc1ccc2c(c1)-c1nc(SCc3ccc(Cl)cc3)ncc1CS2
    -0.8, /
> CCN(CC)c1ccc(NC(=O)COC(=O)Cn2nnc(-c3ccccc3)n2)cc1
    /, 2.3

In a second layout: 2 of the compounds above.
compound: CC(C)(C)c1ccc(NC(=O)N2CCOCC2)cc1
  Ba CapD inh = 0.34
  AID504770 = 1.9
compound: O=C(O)CC(CC(=O)Nc1ccc(-n2ccc(C(F)(F)F)n2)cc1)c1ccccc1 (configuration not stated)
  Ba CapD inh = -0.59
  AID504770 = -0.2

Other structures.
Every second line gives: Ba CapD inh, AID504770
> O=C(OCC(Cc1ccccc1)N(Cc1ccccc1)Cc1ccccc1)N1CCC(n2c(=O)[nH]c3ccccc32)CC1 (configuration not stated)
    -0.97, /
> COCCCNC(=O)c1cc(S(=O)(=O)N2CCc3ccccc32)ccc1Sc1cccc(Cl)c1
    -0.45, /
> c1ccc(COCCn2cc(-c3ccncn3)cn2)nc1
    -0.095, /
> COc1cc(OC)c(C2N(c3ccccc3)CCN2c2ccccc2)cc1Br
    -0.24, /
> Cc1nc(SCC(=O)c2ccc3c(c2)OCO3)c2c3c(sc2n1)CCCC3
    -0.08, /
> CSC1=N/C(=C\c2ccccc2Cl)C(=O)N1N(C)C
    -0.72, 0.05
> COCC(=O)N1N=C(c2cccc(NS(C)(=O)=O)c2)CC1c1ccccc1F (configuration not stated)
    /, -1.2
> O=C(O)Cc1ccc2c(c1)OCCO2
    0.79, 2.3
> O=C(O/N=C1\C(=O)N(c2ccccc2)c2ccccc21)c1ccc(Cl)cc1
    0.065, /
> N#Cc1cc(-c2ccc(Cl)cc2)cn(Cc2ccc(Cl)c(Cl)c2)c1=O
    1.9, /
> COc1cccc(C(=O)N(C)CC(OC)OC)c1
    0.48, -0.15
> Oc1cccc(Cn2c(-c3cccc(O)c3)nc3ccccc32)c1
    -0.07, 0.1
> N#C/C(=C\c1ccco1)C(=O)C1CC1
    -4.3*, -1.1
> CCOc1cc(C#N)c(NC(=O)c2ccco2)cc1OCC
    1.4, 1.8
> COC(=O)c1c(C)[nH]c(C(=O)C(C)OC(=O)c2ccccc2NS(=O)(=O)c2ccc3[nH]c(=O)[nH]c3c2)c1C (configuration not stated)
    /, 0.35
> O=C(N/N=C/c1cccc2c1OCO2)c1cc(C2CC2)nc2ccccc12
    -0.21, /
> O=C(CC1CCCCC1)Nc1ccc2nc3n(c(=O)c2c1)CCCC3
    0.78, -0.2
> CNC(=O)CC1Sc2ccc(C(F)(F)F)cc2NC1=O (configuration not stated)
    -0.29, 0.35
> COCCNc1nc(-c2ccc(S(=O)(=O)N3CCCCC3)cc2)cs1
    /, -0.2
> O=C1CC(SCc2ccc(Cl)cc2)C(=O)N1c1ccc(Br)cc1 (configuration not stated)
    -0.09, -0.55
> O=C(Oc1cccc(-n2cnnn2)c1)C1CCCCC1
    /, -0.1
> Cc1ccc(C(C)NC(=O)/C=C/c2ccccc2)c(C)c1 (configuration not stated)
    0.58, 1
> CCN(c1ccccc1C(=O)O)S(=O)(=O)c1ccc2[nH]c(=O)[nH]c2c1
    6, -0.45
> CNc1nnc(Sc2nnc(NC)s2)s1
    0.59, -1
> COc1ccc(NC(=O)c2cc3nc(-c4ccc(OC)c(OC)c4)cc(C(F)(F)F)n3n2)cc1OC
    -0.14, /
> O=C(NNC(=O)c1ccc2ncccc2c1)c1cncc(Br)c1
    -0.2, /
> O=C(COC(=O)CC1CC2CCC1C2)Nc1ccc(F)cc1Cl (configuration not stated)
    -0.69, -1
> CCN(CC)Cc1nc2ccccc2[nH]1
    /, -0.55
> CCOc1cc(S(=O)(=O)n2c(C)nc3ccccc32)ccc1F
    -0.15, -0.65
> COc1ccc(NC(=O)CC(C)S(=O)(=O)c2ccc3c(c2)CC(C)N3C(C)=O)cc1 (configuration not stated)
    -0.34, -0.4

4 of the compounds above, as labelled records:
> COc1cccc(C(=O)N/N=C(\C)c2ccccc2O)c1
  Ba CapD inh = -1.1 | AID504770 = /

> COCC(=O)N1N=C(c2cccc(NS(C)(=O)=O)c2)CC1c1ccccc1F (configuration not stated)
  Ba CapD inh = / | AID504770 = -1.2

> CCN(CC)CCC(=O)N1N=C(c2ccc(C)cc2)CC1c1ccc(OC)cc1 (configuration not stated)
  Ba CapD inh = 0.45 | AID504770 = 0.25

> CCCCc1nc2ccccc2c(=O)n1NC(=O)c1c(O)c2ccccc2n(CCC)c1=O
  Ba CapD inh = 1.4 | AID504770 = /

Remaining list, next part.
| mol | Ba CapD inh | AID504770 |
| --- | --- | --- |
| CCc1c(C)nc2c(C)cccc2c1SCCC#N | / | -0.6 |
| Clc1ccc(CN2CCOCC2)cn1 | 0.16 | 0.15 |
| CNc1nc(-c2ccc(F)c(F)c2)c(C)s1 | / | -0.1 |
| Cc1ccc(SCC(=O)NN=C(c2ccccc2)c2ccccc2)cc1 | -0.01 | / |
| N=C(N)C12CC3CC(CC(C3)C1)C2 | 0.42 | / |
| O=C(NCCN1CCNC1=O)c1sc2ccccc2c1Cl | 1.1 | -0.6 |
| COc1ccccc1CNC(=O)c1sc2nc[nH]c(=O)c2c1C | 0.71 | -1.3 |
| CCOc1cccc(NC(=O)c2ccc(Br)cc2F)c1 | 0.63 | 0.45 |
| CC(C)NCC(O)COc1ccc2c(c1)CCC2 (configuration not stated) | -0.05 | -0.5 |
| CCN1C(=O)/C(=C\c2cc(C)n(-c3ccccc3)c2C)SC1=S | 0.14 | -0.2 |
| COc1ccc(Br)cc1/C=C1/N=C(c2ccc(C)c([N+](=O)[O-])c2)OC1=O | 0.17 | / |
| Cc1ccnc(SCc2nc3ccc(Cl)cn3c2Br)n1 | 0.6 | 2.1 |
| CCOC(=O)c1c(O)c2cccc3c2n(c1=O)CCC3 | 3.3 | -1.4 |
| Cc1cc(C(=O)N(C)c2ccccc2)on1 | -0.6 | -0.8 |
| O=C(c1cc(N2CCOCC2)nc(N2CCOCC2)n1)N1CCc2ccccc2C1 | -0.08 | / |
| CCN(CC)S(=O)(=O)c1ccc(C(=O)Oc2coc(CSc3ncccn3)cc2=O)cc1 | / | -1.5 |
| O=C1Oc2ccccc2C2c3sc(=O)[nH]c3SC(c3ccccc3)C12 (configuration not stated) | / | 2.7 |
| CNC(=S)Nc1ccc(C)c(NC(=S)NC)c1 | / | -1.9 |
| COC(=O)CNc1c(-c2ccccc2)nc2ccccn12 | 74 | 0.4 |
| O=C(NN=C1C2CC3CC(C2)CC1C3)c1cccc(O)c1 | 0.73 | 0.8 |
| CCOc1ccc2nc(SCC(=O)Nc3ccc4c(c3)OCO4)[nH]c2c1 | -0.68 | / |
| Cc1cccc(N2CCN(c3cc(NCCO)c([N+](=O)[O-])c4nonc34)CC2)c1C | -0.32 | / |
| N/C(COc1ccc(-c2nnco2)cc1)=N\OC(=O)c1cccc(C(F)(F)F)c1 | 1.1 | -0.85 |
| CCN(CC)c1ccc(C2C3=C(CC(C)(C)CC3=O)NC3=C2C(=O)CC(C)(C)C3)cc1 | 0.42 | / |
| CC1CCN(C(=O)/C=C\c2ccccc2)CC1 | -0.11 | -0.45 |
| OC(COC(C(F)(F)F)C(F)(F)F)CN1CCN(c2cccc(C(F)(F)F)c2)CC1 (configuration not stated) | / | -0.3 |
| O=C(Nc1nc2ccccc2[nH]1)C1CC1 | / | -0.2 |
| CC(C)(COC(=O)c1ccc([N+](=O)[O-])o1)Nc1ccc(C(F)(F)F)cc1[N+](=O)[O-] | 0.16 | / |
| c1ccc(-n2nnnc2-c2nc3ccccc3[nH]2)cc1 | 3.9 | -0.25 |
| C=CCN(CC=C)C(=O)c1c(-c2c(Cl)cccc2Cl)noc1C | -0.62 | -0.3 |
| O=C(O)c1cc(C23CC4CC(CC(C4)C2)C3)nc2ccc(Br)cc12 | -0.15 | -0.85 |
| COC(CN)c1ccc2c(c1)OCCO2 (configuration not stated) | -0.51 | 0.15 |

Screening results from PubChem.
